CapD inh: inhibitors of Bacillus anthracis CapD enzyme; purified CapD enzyme, fluorescence intensity read-out; stronger effect = lower value; some hits fall short of the stated cut; z-score (concentration not given with the values); 0.23% of 140,000 active;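 active means z-score under -4 in either of two replicates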;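 further: stock transfer was 100 nL into about 40 µL; score is relative to mean and spread of the plate; one replicate is shown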
AID504770: E. coli YBA685 growth inhibition, screen for V. cholerae RctB inhibitors; z-score (test concentration not listed); E. coli YBA685 rctB-dependent plasmid, OD600 growth, 3 h; stronger effect = lower value; 0.27% of 130,000 active; AID 504770;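 active means z-score under -2 on both plates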;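 further: wells of about 30 µL received 100 nL stock; score is relative to mean and SD of the test wells; the first replicate is given; strong numbers were not always called active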
Numbers without * were called inactive; · = not tested or not shown; & = joins results of further samples.

SMILES,CapD inh,AID504770
O=C(O)C1C2CC3CC(C2)C(O)C1C3 (centres undefined),0.42,-0.4
CCOc1ccccc1C1C(C#N)=C(SC)NC(=O)C1C(=O)OC (centres undefined),0.05,0.7
FC(F)(F)c1ccc(-c2nc(-c3ccccn3)ncc2-c2cnc3ccccc3n2)cn1,-0.48,·
O=C(NNC(=S)Nc1cccc(Cl)c1)C1CC1,0.22,·
CC1CC(C)CN(C(=O)c2cn(-c3ccccc3)nc2-c2cccs2)C1 (centres undefined),0.41,-0.4
Cc1ccc2c(c1)-c1c(cnn1CC(=O)NC1CCCCC1C)CO2 (centres undefined),0,-0.7
COc1ccc(/C=C2/C(=O)N(c3ccccc3)N=C2C)cc1,0.23,·
CCOC(=O)NC(c1ccccc1)C1CCCCC1=O (centres undefined),·,-0.1
O=C(Nc1ccc(N2CCOCC2)cc1)c1ccc(-n2cccn2)cc1,0.81,-0.75
N#Cc1ccc(CC2=C(O)CC3(CCCCC3)CC2O)cc1 (centres undefined),·,-0.35
CC1CCN(C(=O)CSc2ncnc3ccccc23)CC1,-0.34,-0.7
CSc1n[nH]c(NC(=O)c2cccs2)c1-c1ccccn1,0.75,-0.05
O=C(Nc1ccc2c(c1)OCO2)N1CCCc2ccccc21,-0.57,1.3
Cc1nc2ncnn2c(C)c1CCC(=O)NCc1ccco1,0.15,-0.65
CC(OC(=O)c1cc2ccccc2[nH]1)C(=O)NC1CC1 (centres undefined),·,-0.5
Cc1cccc(-n2[nH]nnc2=S)c1C,·,0.85
O=C(Oc1ccc2c(c1)OCO2)c1cccc(Cl)c1,·,-0.05
CCOC(=O)c1cnc(-c2ccccc2)nc1Oc1cccc(C(F)(F)F)c1,0.35,·
CCN1C(C(=O)c2ccccc2)=C(OC(=O)c2ccco2)c2ccccc2S1(=O)=O,-1.4,-0.35
O=c1oc2ccccc2n1CN1CCCCC1,·,-0.7
CC1(C)CC(=O)C2=C(C1)OC(N)=C(C#N)C2c1cn(-c2ccccc2)nc1-c1ccccc1 (centres undefined),-0.18,·
Cn1c2ccccc2c2cn[nH]c(=O)c21,13,-0.85
COc1ccc(N=Cc2ccccc2O)cc1,-0.44,·
Cc1onc(-c2c(F)cccc2Cl)c1C(=O)N(C)C(=O)N(C)C(=O)c1c(-c2c(F)cccc2Cl)noc1C,0.51,·
Cc1ccc(NC(=O)CCCN2C(=O)S/C(=C/c3ccccc3)C2=O)cc1,0.58,0.55
CC1CCN(C(=O)c2cc(-c3ccc(F)cc3)no2)CC1,-0.18,-0.75
Cc1cc(=O)[nH]c2sc3c(=O)cc(C(F)(F)F)[nH]c3c12,-1.1,2.2
O=C(CSc1nc2ccccc2o1)OCC(=O)c1ccc(F)cc1,·,0.5
N#C/C(=C\Nc1ccc(C(N)=O)cc1)c1nc(-c2cccc3ccccc23)cs1,-0.12,-0.3
COc1cccc(/C=C2/N=C(c3ccc(NC(C)=O)cc3)OC2=O)c1,9,·
COc1ccc(/C=C2\SC(=S)N(CCCC(=O)NC34CC5CC(CC(C5)C3)C4)C2=O)cc1,0.48,·
CCCN1CCC(N(C(=O)c2ccc(N)cc2)C2CC2)CC1,-0.35,·
O=S1(=O)CC/C(=N/NS(=O)(=O)c2ccc(Br)cc2)c2ccccc21,·,-0.6
O=C(CN1C(=O)C2C3C=CC(C3)C2C1=O)NCc1ccco1 (centres undefined),·,-0.75
Cc1ccc(CN(C)C(=O)c2cccc(S(=O)(=O)N3CCCC3)c2)cc1,·,-0.45
S=C(NCC1CCCO1)Nc1ccc(Cl)cc1 (centres undefined),-0.21,-0.1
Cc1cc(C)c(Cn2c3ccccc3c3cnn(CC(=O)O)c(=O)c32)c(C)c1,10,-0.2
CCOC(=O)c1cc(C#N)c(Sc2nnc(SCC3CC3)s2)nc1C(F)(F)F,0.58,-0.6
O=C1CCCC2=C1C(c1cc([N+](=O)[O-])ccc1O)C1=C(N2)c2ccccc2C1=O (centres undefined),-0.84,·
O=C(NNC(=O)c1cncc(Br)c1)OCC#Cc1ccccc1,0.23,·
O=c1nc2c(S(=O)(=O)O)ccc3c2=c(/c1=C(\O)c1ccccc1)c1ccccc1c3=O,-1.1,·
CCNc1ncnc2c1oc1ccccc12,·,1.1
Cc1noc(C)c1S(=O)(=O)/N=C/N(C)C,1,0.6
Cc1ccc(C)c(OCCC(=O)O)c1,·,0.7
CCn1c(SCC(=O)c2cccs2)nnc1-c1cccs1,·,-0.6

Whole records from above. Order of screens: CapD inh | AID504770
O=C(Nc1ccc2c(c1)OCO2)N1CCCc2ccccc21 in the list: -0.57 | 1.3
Cc1nc2ncnn2c(C)c1CCC(=O)NCc1ccco1 in the list: 0.15 | -0.65

Other entries.
SMILES,CapD inh,AID504770
Cc1c(Br)cc(C(=O)O)c(C)c1C,-0.04,-0.3
COc1ccc(Cn2c(=O)[nH]c3cc(C(=O)NC4CCN(Cc5ccccc5)CC4)ccc32)cc1,·,1.4
CCOC(=O)c1cc(NC(=O)N(CC)CC)c(C)nc1C,0.17,0.25
N#CCCn1c(=S)[nH]c2ccccc21,·,-0.05
C=C(C)c1cccc(C(C)(C)NC(=O)NC2CC(C)(C)NC(C)(C)C2)c1,·,1.4
CN=C1SC(CC(=O)Nc2ccccc2)C(=O)N1C (centres undefined),·,0.4
CCC(=O)C1C(=O)c2ccccc2C1=O,1.1,-0.5
CCOC(=O)N1CCN(C(=O)CSc2nc(=O)n3ccc(C)cc3n2)CC1,·,-0.35
COC(C)(OCCn1c2ccccc2c2ccccc21)c1ccccc1 (centres undefined),24,1.1
CN(C(=O)CSc1nc(-c2cccs2)cc(C(F)(F)F)n1)c1ccccc1,-0.075,0.05
Cc1ccc2nc(-c3ccc(NC(=O)Nc4ccccc4)cc3)sc2c1,42,-0.85
CC(C)(C)NS(=O)(=O)c1ccccc1,0.48,0.1
Nc1cccc(CN2CCCC2)c1,·,-0.05
CC(C)OC(C)n1cccc1-c1ccccc1 (centres undefined),0.45,1.3
CCC(C(=O)Nc1c(C)cccc1C)n1c(C(=O)OC)cc2sc(C)cc21 (centres undefined),-2.6,0
CC1(C)Cc2ccccc2-c2nc3n(c(=O)c21)CCCS3,·,-0.2
CC(=O)c1ccc(S(=O)(=O)N(C)Cc2cccnc2)cc1,0.07,·
CCN1C(=O)c2cccc3c(S(=O)(=O)N4CC(C)OC(C)C4)ccc1c23 (centres undefined),1.6,1.1
O=C(c1ccc2c(c1)N(Cc1ccccc1)C(=O)c1ccccc1S2=O)N1CCCCC1 (centres undefined),-0.09,0.6
NNC1=NC2CS(=O)(=O)CC2S1 (centres undefined),·,-0.35
COc1cc2ncnc(NCCc3ccc(S(N)(=O)=O)cc3)c2cc1OC,8.5,·
Cc1cc(C)nc(SCCC(=O)OCN2C(=O)c3ccccc3C2=O)n1,-0.01,0.2
O=c1oc2ccccc2cc1-c1nnc(NCc2ccc3c(c2)OCO3)s1,0.29,-0.15
O=C(CS(=O)(=O)c1cn(Cc2ccc(Cl)cc2)c2ccccc12)N1CCCC1,-0.47,1.4
Cc1ccc2nc3c(c(C)c2c1)CC(C)O3 (centres undefined),·,-0.7
Cc1ccc(NC(=O)c2cc(S(=O)(=O)N(Cc3ccco3)CC3CCCO3)ccc2F)cc1Cl (centres undefined),-0.82,·
Cc1cccc(-n2c(SC3CCOC3=O)nnc2-c2cccc(S(=O)(=O)N(C)C)c2)c1 (centres undefined),·,0.75
COCc1nc2ccccc2c2c1C(=O)N(NC(=O)c1csc(C)n1)C2=O,-0.4,·
Cc1ccc(NC(=O)c2c(Cl)nc3sccn23)cc1NC(=O)c1c(Cl)nc2sccn12,·,-0.2
CCOC(=O)CSc1c(C)[nH]c2ccccc12,-0.2,0.3
CCc1ccc(NC(=O)Cn2c(=O)n(C(C)C)c(=O)c3oc4ccccc4c32)cc1,8.2,-0.55
CC(=O)Nc1ccc2c(c1)C(=O)N(c1ccccc1)C2=O,·,-0.25
CCN(c1ccccc1)S(=O)(=O)c1cccs1,0.06,-0.6
CCC1CCC2(CC1)NC(=S)N(c1ccc(C)cc1)N2 (centres undefined),-0.3,·
O=C(c1cc2ccccc2c(=O)o1)N1CCc2ccccc2C1,0.08,-0.5
Cc1ccc(S(=O)(=O)NCCN2CCOCC2)cc1,·,-0.55
O=C(Nc1n[nH]c(C(F)(F)F)n1)c1ccc(F)cc1,-0.64,-0.85
CCN(CC)C(=O)Cn1cc(S(=O)(=O)CC(=O)NCCc2ccccc2)c2ccccc21,·,-1.4
O=C(O)c1ccc(S(=O)(=O)NC2=NCCS2)cc1,·,-0.9
O=C(O)CNCc1nc2ccccc2[nH]1,·,-1.1
Cn1ccnc1SCn1nnc2ccccc2c1=O,·,-0.7
O=C(CCN1CCN2CCCCC2C1)N1c2ccccc2Sc2ccc(Cl)cc21 (centres undefined),0,·
CCN1/C(=C\C=C2C(=O)OC(C)(C)OC2=O)Sc2ccccc21,·,3
CC(C)OC(=O)/C(C#N)=C\c1cccs1,·,2.7
CSc1sc(C(=O)/C=C/N(C)C)c(-c2ccccc2)c1C#N,-1.2,-0.7

A second format for part of the listing above:
canonical_smiles: CCN(c1ccccc1)S(=O)(=O)c1cccs1
  CapD inh = 0.06
  AID504770 = -0.6
canonical_smiles: CCC1CCC2(CC1)NC(=S)N(c1ccc(C)cc1)N2 (centres undefined)
  CapD inh = -0.3
  AID504770 = ·
canonical_smiles: O=C(c1cc2ccccc2c(=O)o1)N1CCc2ccccc2C1
  CapD inh = 0.08
  AID504770 = -0.5
canonical_smiles: Cc1ccc(S(=O)(=O)NCCN2CCOCC2)cc1
  CapD inh = ·
  AID504770 = -0.55

Next part.
SMILES,CapD inh,AID504770
O=C1/C(=C/c2ccccn2)CC/C1=C\c1ccccn1,0.02,-0.2
COc1ccccc1-n1cnc2cc(NCc3ccncc3)ccc21,2.5,-0.8
COc1cc(C)nc(Oc2ccc(/C=N/O)cc2)n1,0.36,0.2
COc1ccc(C2CCCCC2O)cc1OC (centres undefined),-0.53,-0.05
Cc1cc(NC(=O)C(C)Sc2nc(-c3ccccc3)cc(C(F)(F)F)n2)no1 (centres undefined),-0.62,-0.4
Cn1ccnc1SCC(=O)NC1CCCC1,·,1.4
COc1cc(Cl)c(C)cc1NC(=O)NCc1noc2ccccc12,0.28,-0.05
COc1ccc(OCC2Cn3c(nc4c3c(=O)n(C)c(=O)n4C)O2)cc1 (centres undefined),·,-0.7
CN(C)c1nc(-c2ccccc2)nc2c1sc(=S)n2-c1ccccc1,0.03,-0.6
Cc1ccc2cc(C3CC(c4ccc(Br)cc4)=NN3C(=O)CCC(=O)O)c(Cl)nc2c1 (centres undefined),0.35,·
O=C(c1cccc([N+](=O)[O-])c1)N1N=C(C(F)(F)F)CC1(O)c1ccncc1 (centres undefined),0.26,·
O=C1COCC(=O)N1c1ccc(I)cc1,-1,·
CCCC1=C(C(=O)OCC)C2(C(=O)Nc3ccccc32)C(C(=O)OCC)=C(N)O1 (centres undefined),0.15,·
CC(C)Cn1c(SCC(=O)Nc2ccc(S(N)(=O)=O)cc2)nnc1-c1ccco1,·,-0.65
CC(CN1CCCCC1)OC(=O)CCc1ccccc1 (centres undefined),·,1.1

Overlap with the part before: 2 compounds; new compounds follow.
SMILES,CapD inh,AID504770
CC(C)Cn1c(SCC(=O)Nc2ccc(S(N)(=O)=O)cc2)nnc1-c1ccco1,·,-0.65
CC(CN1CCCCC1)OC(=O)CCc1ccccc1 (centres undefined),·,1.1
CCN1CCN(C(=O)c2sc3ncn(C)c(=O)c3c2C)CC1,-0.11,·
CN(Cc1ccccc1)C(=O)COc1ccccc1Cl,0.09,-0.65
O=C(CC(NC1CC1)C(=O)O)c1ccc(Cl)cc1 (centres undefined),-0.4,-0.65
CC1(C)CC(=O)C=C(Nc2ccc(F)cc2)C1,7.5&-1.5,-1.1&-0.95
CC(c1ccncc1)N(CCN(C)C)C(=O)Nc1ccc(Cl)c(Cl)c1 (centres undefined),0.53,-0.05
CCN1CCN(CCCNC(=O)c2ccc(Cn3c(=S)[nH]c4cc5c(cc4c3=O)OCO5)cc2)CC1,-0.43,1
CCCc1c(C(=O)NCc2cc(F)cc3c2OCOC3)cnn1-c1ccccc1,0.01,0.35
COc1cc(OC)cc(C2=NC(C)(C)CO2)c1,0.1,-1.1
CCCOC(=O)c1sc2nc3c(c(-c4cccs4)c2c1N)CCCC3,-0.59,·
COc1ccc(C2(O)CN(c3ccc(Br)cc3)C3=[N+]2CCCS3)cc1 (centres undefined),0.32,·
O=C(CSc1nc(Nc2ccccc2)nc(N2CCOCC2)n1)N1CCN(c2ccccc2)CC1,-1.4,1.8
COc1ccccc1NC(=O)CC1C(=O)Nc2ccccc2N1C(=O)c1ccccc1 (centres undefined),-0.58,2.6
COc1ccc(-c2cn3c(n2)-c2ccccc2C3)cc1OC,80,-1
CCN(CC)S(=O)(=O)c1ccc(NC(=O)COC(=O)c2cncc(Br)c2)cc1,·,0.85
